Compound activity: PubChem, Fisher Drug Discovery Resource Center
NPYLR7 agonist = mosquito NPYLR7 agonism | activation, % at 10 µM | HEK293T NPYLR7/Galpha15, GCaMP6s calcium fluorescence | 270,000 compounds, 0.15% hits | AID 1259423; in the data active = activation above about 40%;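 also: 0% = vehicle and 100% = reference agonist at the receptor; some compounds past the cut are filed as inactive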
NPYLR7 agonist max-min = further read-out of NPYLR7 agonist, marked with its call; activation, %; measured here: Max-Min RFU normalised activation; some inactives read as strong as hits;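 span of the calcium signal over five minutes; 0% = vehicle and 100% = native peptide agonist; compound fluorescence can raise it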
* hit, by the source's call; & = joins results of further samples. Not all compounds are listed (hit frequency here may not be typical).

SMILES	NPYLR7 agonist	NPYLR7 agonist max-min
CCOC(=O)c1nc2ccccc2nc1N1CCN(C(=O)c2cccs2)CC1	-17	-8
CC(=O)Oc1ccc2nc(-c3ccc(Oc4ccc([N+](=O)[O-])cc4)cc3)oc(=O)c2c1	15	0
CC(NC(=O)CC1CCS(=O)(=O)C1)c1ccc(Cl)s1 (configuration not stated)	-3	-3
CCOc1ccccc1NS(=O)(=O)c1c(N)n(C)c(=O)n(C)c1=O	2	-1
COc1ccc(OC)c(-n2c(SCCC(C)C)nnc2-c2cccc(S(=O)(=O)N(C)C)c2)c1	7	6
CN(C)c1ccc(NC(=O)Nc2cccc3[nH]c(COCCO)nc23)cc1	3	12
COc1ccc(Oc2cnn(-c3ccc(Cl)cc3)c(=O)c2Nc2ccc(C(=O)O)cc2)cc1	8	8
Cc1cc(C(=O)N2CCc3c([nH]c4ccccc34)C2c2cccc(C(F)(F)F)c2)no1 (configuration not stated)	-8	-14
Cc1cc(C)c[n+](-c2nc3ccccc3nc2C(C#N)C#N)c1	20&1	27&-3
Cc1nc2nc(N)nn2c(C)c1CCC(=O)NCCc1ccccc1	2	5
O=S1(=O)CC(COCc2ccccc2)CN1c1ccccc1 (configuration not stated)	2	4
Cc1cc(C)n(C2CCN(C(=O)CC(=O)Nc3ccccc3C)C2)n1 (configuration not stated)	1	5
Cc1ccc(CN(Cc2ccccc2)C(=O)CN(CCCN2CCOCC2)C(=O)Nc2cccc(C)c2C)o1	-7	-3
CC1(Cc2c(Cl)cccc2Cl)C(=O)Nc2ccc(-c3cccc(C(F)(F)F)c3)cc21 (configuration not stated)	-1	-2
COCc1nc(N2CCN(C(=O)NC34CC5CC(CC(C5)C3)C4)CC2)c2c3c(sc2n1)CCCC3	-13	-11
Cc1cc(NC(=O)CSC2=Nc3ccccc3CS2)no1	6	6
CCCCn1c(N2CCN(Cc3ccc(F)cc3)CC2)nc2c1c(=O)[nH]c(=O)n2C	1	38
CCCCn1c(N)c(N(Cc2ccco2)C(=O)c2cc(F)cc(F)c2)c(=O)[nH]c1=O	1	3
CC(=O)Nc1c(-c2ccc(F)c(F)c2)nc2ccccn12	-4	2
COC(=O)c1cc2n(n1)CCN(c1cncc(C(=O)N3CCCCC3)n1)C2	-1	-4
Fc1c(F)c(F)c(NN=Cc2ccc3c(c2)OCO3)c(F)c1F	7	6
O=C(O)CCc1nn2c(nc3ccccc32)[nH]c1=O	9	3
CC1(C)CCCC(C)(C)N1Sc1ccccc1	0	3
Cc1ccc(C2(C)N(O)C(C)C(c3cccs3)=[N+]2[O-])cc1 (configuration not stated)	-14	-21
c1ccc2c(c1)c1ccccc1c1nc3nonc3nc21	-1	3
NC(=O)c1cc(C2CCCN(C(=O)COC3CCCC3)C2)[nH]n1 (configuration not stated)	2	2
CCCCCc1ccc(C(=O)NCc2nnc(SCc3ccc(F)cc3)n2-c2ccc(C)cc2)cc1	16	24
O=C(C1=C(O)C(=O)N(c2ncccn2)C1c1ccc(Cl)c(Cl)c1)c1ccco1 (configuration not stated)	5	6
O=C(c1ccc2n[nH]nc2c1)N1CC(c2cccnc2)C1	12	-9
CCC(=O)Oc1ccc(C=C2C(=O)NC(=S)NC2=O)cc1OC	-5	-5

Pulled one by one from the entries so far:
SMILES	NPYLR7 agonist	NPYLR7 agonist max-min
Cc1ccc(CN(Cc2ccccc2)C(=O)CN(CCCN2CCOCC2)C(=O)Nc2cccc(C)c2C)o1	-7	-3
CCCCn1c(N)c(N(Cc2ccco2)C(=O)c2cc(F)cc(F)c2)c(=O)[nH]c1=O	1	3
CCOc1ccccc1NS(=O)(=O)c1c(N)n(C)c(=O)n(C)c1=O	2	-1
CC(=O)Oc1ccc2nc(-c3ccc(Oc4ccc([N+](=O)[O-])cc4)cc3)oc(=O)c2c1	15	0
c1ccc2c(c1)c1ccccc1c1nc3nonc3nc21	-1	3

(next part)
SMILES	NPYLR7 agonist	NPYLR7 agonist max-min
Cc1ccc2c(c1)c1c3n2CC(=O)N(Cc2ccccc2)C3CCC1 (configuration not stated)	3	0
O=C(O)c1cnc2c(c1)n(CC1CCCO1)c(=O)n2C1CCCCC1 (configuration not stated)	8	8
CCCn1nc(-c2ccccc2)c2sc(N3CCCCC3)nc2c1=O	-2	-5
CN(CCc1nc2ccc(F)cc2[nH]1)C(=O)[C@@H]1Cc2ccccc2N1	4	3
Cc1ccc(-n2ncc3c(=O)n(NC(=O)Cc4cccc5ccccc45)cnc32)cc1	0	-2
COc1ccc(C)cc1NC(=O)CCc1cccs1	3	0
O=C(CSC(F)(F)F)Nc1cc2c(cc1Cl)OCO2	3	3
CN(C)c1ncccc1CNC(=O)C(O)c1ccc(Cl)cc1 (configuration not stated)	2	3
CC(NC(=O)C(C)(C)c1ccc2c(c1)OCCO2)C(O)c1cccc(F)c1 (configuration not stated)	8	7
CC(C)c1csc(C2CCN(C(=O)CCc3ccsc3)CC2)n1	4	1
COc1cccc(NC(=O)N2C[C@H](O)[C@@H]3C[C@H]2Cc2c3n(C)c3ccccc23)c1	32	41
CN(C(=O)CC(c1ccccc1)c1ccccc1)C1CC1	0	37
COc1ccc(OC)c(-c2ccc(=O)n(CCNC(=O)Nc3ccccc3Cl)n2)c1	-8	3
O=[N+]([O-])c1cc(S(=O)(=O)Nc2ccccc2)ccc1NN=C1CC2CC=CC12 (configuration not stated)	0	3
CC(C)C(NC(=O)c1ccc(F)cc1)c1cccs1 (configuration not stated)	2	1
CCOC(=O)/C(=C/c1cc2ccccc2n1C)[N+](=O)[O-]	-1	10
CCOC(=O)COc1cc(Cl)c(C=O)cc1OCC	-10	-15
O=C(NC1CCCCC1NC(=O)c1ccco1)c1ccco1 (configuration not stated)	2	3
CCn1ccc(C(=O)N(CCCN2CCOCC2)c2nc3c(F)cc(F)cc3s2)n1	2	0
Cn1ccnc1CN(C(=O)c1cc(-c2ccc(O)cc2)n[nH]1)C1CC1	6	0
Cn1ccn2ncc(C(=O)N3C[C@H]4CC[C@@H](C3)N4)c12	5	3
CC1(C(=O)NCC(F)(F)F)CCN1C(=O)C1(c2ccccc2)CCCC1 (configuration not stated)	15	19
CC1CCN(S(=O)(=O)NCC2(N(C)C)CCCCCC2)CC1	-5	-5
CC(C)(C)n1cc(NS(=O)(=O)c2cc(F)c(F)cc2F)cn1	6	4
OC12CC3CC(C1)CC(Nc1cnccn1)(C3)C2	1	1
CC(C)n1cnnc1CN(C)Cc1ncc[nH]1	5	4
CN1[C@H]2CC[C@@H]1CN(C(=O)C(=O)CCc1ccccc1)CC2	-3	-1
CC1CN(Cc2ccc(-n3cccn3)cc2)c2ccccc21 (configuration not stated)	13	11
CC(OC(=O)c1ccc(S(C)(=O)=O)cc1)C(=O)N(C(C)C)C(C)C (configuration not stated)	-3	0
O=C(CCCNC(=O)C12CC3CC(CC(C3)C1)C2)Nc1cccc(Cl)c1	11	3
c1ccc(OCc2nc(-c3ccccn3)n[nH]2)cc1	18	12
COC(=O)c1ccc(/C=N\n2c(=O)c(C(C)(C)C)nn3cnnc23)cc1	2	-4
COCCN(Cc1ccc(C)cc1)Cc1c(Cl)nc2sccn12	14	7
CCOC(=O)c1c(-c2ccccc2)csc1N=Cc1nc(-c2ccccc2)oc1O	97*	138*
Cc1nc(NC(=O)N(C)Cc2ccco2)n[nH]1	14	8
Cc1cc(Cl)ccc1N1C(=O)/C(=C\c2ccc(OCC(=O)O)cc2)N(C)C1=S	22	25
O=C(NCc1c(F)cccc1F)c1csc(NS(=O)(=O)c2cccs2)n1	-7	-5
O=C(O)c1ccc(CSc2nnc(Cc3ccccc3)n2-c2ccccc2F)cc1	-5	-10
O=C(CCn1cnnn1)N1CCCC(N2CCN(c3cccc(C(F)(F)F)c3)CC2)C1 (configuration not stated)	6&6	1&6
O=C(CSc1ncnc2c1cnn2-c1ccc(F)cc1)NCc1ccco1	11	4
O=CC1=Cc2cc(Br)ccc2OC1	11	4
NC(=O)C1CCCN1Cc1cccc(NC(=O)COc2cccc(F)c2)c1 (configuration not stated)	11	7
C=CCNC(=O)C(NC(=O)c1cccs1)C1CCN(C(=O)c2ccc(Cl)cc2)CC1 (configuration not stated)	8	11
CC(=O)N1CCC(N2CCC[C@H]2c2nc(-c3ccc(N4CCOCC4)nc3)no2)CC1	-11	-17
CC(C)CC(O)C1CCN(C(=O)CCc2nnc(-c3ccc4c(c3)OCO4)o2)CC1 (configuration not stated)	-8	-16
CC(C)CCC(=O)Nc1ccc(-c2cccc(-c3ccc4c(c3)OCCO4)n2)cc1	-5	-8
O=C(Nc1ccnn1Cc1cccc(Cl)c1Cl)C1CCN(S(=O)(=O)c2ccccc2)CC1	-1	-1
CN(Cc1ccccc1)C(=O)CCC1CCN(C(=O)CN2CCOC2=O)CC1	11	7
COCC(NC(=O)C(=O)N1CCCCCC1)c1ccnn1C (configuration not stated)	11	8
CCOc1ccccc1N1CCN(C(=O)c2cc(-c3ccc(F)cc3)nc3cc(-c4ccccc4)nn23)CC1	17&-10	23&-9
Continuation:
SMILES	NPYLR7 agonist	NPYLR7 agonist max-min
Cn1c(N)c(-c2nc(C3CCCC3)c(C(=O)c3cc(F)ccc3F)s2)c(=O)n(C)c1=O	0	-3
Cn1cc(C(=O)Nc2ccc(Cl)c(Cl)c2)c2[nH]c(=O)n(-c3ccc(Cl)cc3)c(=O)c21	2	-3
CC(C)C(=O)N1CCCC(OCc2cccc([N+](=O)[O-])c2)C1 (configuration not stated)	0	2
Cc1noc(C(C)NC(=O)Nc2ccccc2C(C)(C)C)n1 (configuration not stated)	6	3
O=C(CN(CC1CCCO1)C(=O)COCc1ccccc1)N(Cc1ccccc1)Cc1ccco1 (configuration not stated)	-5	-1
Cc1cc(Nc2ccc3c(n2)C(=O)N([C@H](C)C(=O)N[C@H](C)c2ccccc2)C3)n(C)n1	7	0
CC(C)c1nc2cc(NC(=O)CN3CCCCCCC3=O)ccc2o1	-2	-3
COc1ccc(-n2nc(-c3cccs3)cc2C(=O)N2CCC(C(N)=O)CC2)cc1	-7	2
NC(=O)CCN(C(=O)COc1ccccc1Cl)c1ccccc1	5	0
Cc1[nH]c2ccccc2c1CC(=O)N1CCN2C(=O)CN(C)C(=O)C2C1 (configuration not stated)	4	2
CC1(c2ccccc2)CC1Nc1ccc(S(C)(=O)=O)cc1S(C)(=O)=O (configuration not stated)	-3	-6
CCOC(=O)N1CCN(C(=O)c2csc(CSc3nnc(-c4ccco4)n3-c3ccc(Cl)c(Cl)c3)n2)CC1	10	23
CC(C)NC(=O)N1CCc2nc(Nc3ccc(C(C)C)cc3)ncc2C1	-3	-8
COc1ccc(C(=O)CSc2nnc(NC(=O)COCc3ccccc3)s2)cc1	14	12

Structures shown so far that contain a Cl atom, in the order listed:
SMILES	NPYLR7 agonist	NPYLR7 agonist max-min
CC(NC(=O)CC1CCS(=O)(=O)C1)c1ccc(Cl)s1 (configuration not stated)	-3	-3
COc1ccc(Oc2cnn(-c3ccc(Cl)cc3)c(=O)c2Nc2ccc(C(=O)O)cc2)cc1	8	8
CC1(Cc2c(Cl)cccc2Cl)C(=O)Nc2ccc(-c3cccc(C(F)(F)F)c3)cc21 (configuration not stated)	-1	-2
O=C(C1=C(O)C(=O)N(c2ncccn2)C1c1ccc(Cl)c(Cl)c1)c1ccco1 (configuration not stated)	5	6
O=C(CSC(F)(F)F)Nc1cc2c(cc1Cl)OCO2	3	3
CN(C)c1ncccc1CNC(=O)C(O)c1ccc(Cl)cc1 (configuration not stated)	2	3
COc1ccc(OC)c(-c2ccc(=O)n(CCNC(=O)Nc3ccccc3Cl)n2)c1	-8	3
CCOC(=O)COc1cc(Cl)c(C=O)cc1OCC	-10	-15
O=C(CCCNC(=O)C12CC3CC(CC(C3)C1)C2)Nc1cccc(Cl)c1	11	3
COCCN(Cc1ccc(C)cc1)Cc1c(Cl)nc2sccn12	14	7
Cc1cc(Cl)ccc1N1C(=O)/C(=C\c2ccc(OCC(=O)O)cc2)N(C)C1=S	22	25
C=CCNC(=O)C(NC(=O)c1cccs1)C1CCN(C(=O)c2ccc(Cl)cc2)CC1 (configuration not stated)	8	11
O=C(Nc1ccnn1Cc1cccc(Cl)c1Cl)C1CCN(S(=O)(=O)c2ccccc2)CC1	-1	-1
Cn1cc(C(=O)Nc2ccc(Cl)c(Cl)c2)c2[nH]c(=O)n(-c3ccc(Cl)cc3)c(=O)c21	2	-3
NC(=O)CCN(C(=O)COc1ccccc1Cl)c1ccccc1	5	0
CCOC(=O)N1CCN(C(=O)c2csc(CSc3nnc(-c4ccco4)n3-c3ccc(Cl)c(Cl)c3)n2)CC1	10	23
